LANA-H2A inh: blockers of LANA interaction with H2A/H2B – biochemical, FP readout, HTS, primary screen; cell-free LANA-H2A/H2B peptide, fluorescence polarization; inhibition, % (concentration not given with the values); 320,000 compounds, 0.6% hits; AID 2629, 2010; in the data active = inhibition mostly above about 10%, no sharp cut-off; inactive = mostly below about 6.7%;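 note: stock transfer was 7.5 nL into about 10 µL; 0% = median of vehicle wells and 100% = median of positive control wells; one replicate is shown; the record names a cut of 25% in any replicate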
HNF4A DNA FP: change in binding of human HNF4A to DNA, primary screen, biochemical, fluorescence polarization, FITC-DNA; 1 h; activity change, % at 10 µM; 360,000 compounds, 0.3% hits; Hepatocyte nuclear factor 4-alpha (Homo sapiens), P41235; in the data active = activity change above about 30%, passing the limit was not always enough;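 note: controls were the assay level and a saturating level of protein; the project sought stronger binding though the title names inhibitors; some compounds called inactive have numbers as strong as hits; positive values seem to mean higher polarization but the record does not say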
FGF22 binding: binders of human FGF22 protein, primary screen, FGF22 synaptogenesis inhibitor project, biophysical, thermal shift, single point; Fibroblast growth factor 22 (Homo sapiens), Q9HCT0; recombinant FGF22 thermal shift, SYPRO orange fluorescence; percent of sucrose octasulfate shift, DMSO zero; calls only at 9.99 µM; 340,000 compounds, 1.5% hits; AID 651658, 2012;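 active = melting point raised past a set limit in the mean and every replicate; three in four hits are not shown here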
Target sequence (Q9HCT0 whole entry, looked up): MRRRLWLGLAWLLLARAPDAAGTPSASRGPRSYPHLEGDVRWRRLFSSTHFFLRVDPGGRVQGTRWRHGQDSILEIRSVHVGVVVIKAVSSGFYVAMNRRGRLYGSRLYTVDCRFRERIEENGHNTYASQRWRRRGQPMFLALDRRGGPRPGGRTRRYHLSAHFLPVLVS
ALR inh: inhibitors of human ALR sulfhydryl oxidase, primary screen, biochemical, H2O2 detection, HRP-luminol luminescence, single point | purified ALR, DTT oxidation | 290,000 compounds, 3.8% hits | AID 485317, 2010 | FAD-linked sulfhydryl oxidase ALR (Homo sapiens), P55789 | inhibition, % (concentration not given with the values);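 active = mean and each replicate at 75% or more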;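 note: stock transfer was 7.5 nL into about 7.5 µL; 0% = neutral wells and 100% = wells with inactivated enzyme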
Target sequence (P55789 whole entry, looked up): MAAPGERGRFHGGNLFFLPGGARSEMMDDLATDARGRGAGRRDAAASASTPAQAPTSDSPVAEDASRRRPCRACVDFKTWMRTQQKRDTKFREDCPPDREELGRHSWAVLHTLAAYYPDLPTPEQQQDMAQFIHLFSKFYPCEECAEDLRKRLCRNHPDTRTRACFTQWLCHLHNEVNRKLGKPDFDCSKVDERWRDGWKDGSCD
UCH37 inh: inhibitors of human UCH37 deubiquitinase, primary screen, biochemical, Ub-AMC cleavage, fluorescence | 330,000 compounds, 0.33% hits | purified proteasome/UCH37 | Ubiquitin carboxyl-terminal hydrolase isozyme L5 (Homo sapiens), Q9Y5K5 | AID 588478, 2011 | inhibition, % (no concentration beside the values);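 active = mean of two replicates above 20%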;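 note: 0% = compound-free wells with enzyme and 100% = wells lacking proteasome; stock transfer was 100 nL into about 20 µL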
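Material: human UCH37 enzyme supplied as purified proteasome complex. Measure: % inhibition of Ub-AMC cleavage fluorescence. Medium: pH 7.4 Tris-HCl (50 mM) with ovalbumin, ATP-MgCl2, DTT. Times: 30 min preincubation with enzyme, 25 min cleavage at room temperature. Detection: AMC fluorescence intensity at 355/460 nm.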
Beta2AR agonist: beta2AR agonists driving receptor internalization, primary screen, cell-based, FAP fluorogen, flow cytometry | Beta-2 adrenergic receptor (Homo sapiens), P07550 | Am2.2-beta2AR cells; reference of the scale not given here | response, % (concentration not given with the values) | 340,000 compounds, 0.43% hits | AID 504454, 2011;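 active = response above a set limit, near 3 SD of response in nonfluorescent compounds, cut at about 42% in these data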;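 note: stock transfer was 100 nL into about 11 µL; a reference agonist was the positive control; negative values mostly stem from fluorescent compounds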
Target sequence (P07550 whole entry, looked up): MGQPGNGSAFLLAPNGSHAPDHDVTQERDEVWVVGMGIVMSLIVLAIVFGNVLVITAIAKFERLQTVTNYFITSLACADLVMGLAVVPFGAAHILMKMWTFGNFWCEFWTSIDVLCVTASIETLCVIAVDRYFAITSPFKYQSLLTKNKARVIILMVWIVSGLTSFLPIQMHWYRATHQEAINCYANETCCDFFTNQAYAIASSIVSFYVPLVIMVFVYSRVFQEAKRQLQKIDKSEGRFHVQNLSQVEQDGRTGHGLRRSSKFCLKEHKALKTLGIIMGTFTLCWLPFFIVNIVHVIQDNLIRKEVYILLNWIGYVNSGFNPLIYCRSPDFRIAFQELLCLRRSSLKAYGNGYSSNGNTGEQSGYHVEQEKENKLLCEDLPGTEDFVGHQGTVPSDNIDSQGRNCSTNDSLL
Ecoli growth: E. coli growth inhibition, primary screen, OD600. Escherichia coli growth, 23 h; hits give low values. OD600 absorbance (test concentration not listed). 330,000 compounds, 0.21% hits. AID 1053175, 2014;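 active = OD600 absorbance below the run mean of sample wells minus 3.6 SD, in any replicate, cut at about 0.56 in these data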;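 note: stock transfer was 300 nL into about 60 µL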
* marks the source's active call; other numbers are inactive results.

`COc1ccc(C2c3c(ccc4ccccc34)Oc3ncn4nc(Cc5ccccc5)nc4c32)cc1OC` (centres undefined) gave LANA-H2A inh -6.9, HNF4A DNA FP 0.5, UCH37 inh -0.6, Beta2AR agonist -16 and Ecoli growth 0.73.
Screening Cc1cc(C)n(-c2ccc(C(=O)OCC(=O)Nc3cc(Cl)ccc3[N+](=O)[O-])cc2)n1 returned LANA-H2A inh 5.5, HNF4A DNA FP 0.5, ALR inh -8, UCH37 inh 2.0, Beta2AR agonist -5 and Ecoli growth 0.69.
O=C(NCc1ccco1)c1ccccc1NS(=O)(=O)c1cccs1 was read as LANA-H2A inh 2.3, HNF4A DNA FP -4.0, ALR inh 1, UCH37 inh 0.3, Beta2AR agonist 4 and Ecoli growth 0.65.
COc1ccc(S(=O)(=O)N(C)c2ccc(C(=O)N3CCCC3)cc2)cc1 was read as LANA-H2A inh -1.5, HNF4A DNA FP -0.6, FGF22 binding inactive, ALR inh -11, UCH37 inh 2.5, Beta2AR agonist -10 and Ecoli growth 0.71.
`O=C(CN1C(=O)NC(c2ccccc2)(c2ccccc2)C1=O)N1CCOCC1` gave HNF4A DNA FP 1.0, FGF22 binding inactive, UCH37 inh 3.3, Beta2AR agonist 2 and Ecoli growth 0.68.
`CCOc1ccc(C(=O)NNC(=O)c2cc(C)oc2C)cc1` gave HNF4A DNA FP -2.9, FGF22 binding inactive, UCH37 inh 1.2, Beta2AR agonist 4 and Ecoli growth 0.61.
`CCN(CC(=O)Nc1cc(S(=O)(=O)N2CCCCC2)ccc1C)Cc1ccccc1` gave LANA-H2A inh -3.9, HNF4A DNA FP 0.2, FGF22 binding inactive, ALR inh 2, UCH37 inh 5.0, Beta2AR agonist -1 and Ecoli growth 0.63.
Screening CC(C)NC(=O)[C@@H]1CSC2c3ccccc3C(=O)N21 (some centres undefined) returned LANA-H2A inh -2.6, HNF4A DNA FP 0.7, FGF22 binding inactive, ALR inh 8, UCH37 inh 0.3, Beta2AR agonist 3 and Ecoli growth 0.67.
COc1ccc(CNS(=O)(=O)CCNCCc2ccccc2)cc1 was read as HNF4A DNA FP 2.8, FGF22 binding inactive and Beta2AR agonist -2.
CCOC(=O)c1c(NC(=O)C2COc3ccccc3O2)sc2c1CC(C)(C)NC2(C)C (centres undefined) was read as LANA-H2A inh -1.2, HNF4A DNA FP -2.0, ALR inh -43, UCH37 inh -1.9, Beta2AR agonist 7 and Ecoli growth 0.71.
For CN1CCC(NC(=O)Cc2c(F)cccc2Cl)CC1 the results were LANA-H2A inh -0.1, HNF4A DNA FP 1.8, ALR inh -4, UCH37 inh 2.7, Beta2AR agonist 4 and Ecoli growth 0.67.
Screening COc1ccccc1N(CC(=O)Nc1cc(C)on1)S(=O)(=O)c1ccc(Cl)cc1 returned LANA-H2A inh -5.9, HNF4A DNA FP -1.8, ALR inh -5, UCH37 inh 3.5, Beta2AR agonist 1 and Ecoli growth 0.7.
For CCOc1ccccc1C(=O)N1CCN=C1SC the results were LANA-H2A inh -4.8, HNF4A DNA FP -4.0, UCH37 inh -0.7, Beta2AR agonist -3 and Ecoli growth 0.72.
`O=C1CN(C(=O)c2c(F)cccc2F)C(c2ccc(F)cc2)c2cc(Br)ccc2N1` (centres undefined) gave LANA-H2A inh -0.4, HNF4A DNA FP -5.6, FGF22 binding inactive, ALR inh -1, UCH37 inh -0.7, Beta2AR agonist 3 and Ecoli growth 0.67.
Cc1ccc(C)c(NC(=O)CCN2CC(C)CC(C)C2)c1 (centres undefined) was read as LANA-H2A inh 6.3, HNF4A DNA FP 0.2, FGF22 binding inactive, ALR inh -6, UCH37 inh -0.6, Beta2AR agonist -1 and Ecoli growth 0.69.
Screening CCCN(C(=O)c1ccco1)c1nnc(-c2ccccc2C)s1 returned LANA-H2A inh 1.6, HNF4A DNA FP -4.2, FGF22 binding inactive, ALR inh -1, UCH37 inh 2.9, Beta2AR agonist -22 and Ecoli growth 0.7.
For O=S(=O)(c1ccc(-c2n[nH]c(=S)o2)cc1)N1CCCCC1 the results were LANA-H2A inh -1.1, HNF4A DNA FP -0.8, FGF22 binding inactive, UCH37 inh 3.5, Beta2AR agonist 11 and Ecoli growth 0.69.
`CN1C2=CC=CC=CC2=[N+](C)C12C([N+](=O)[O-])=CC(=[N+]([O-])[O-])C=C2[N+](=O)[O-]` (centres undefined) gave LANA-H2A inh -2.2, HNF4A DNA FP 4.4, FGF22 binding inactive, ALR inh -21, UCH37 inh 3.8, Beta2AR agonist 18 and Ecoli growth 0.71.
`CCN1CCN(CCCNC(=O)CCC(=O)N2CC(C)Oc3ccc(C)cc32)CC1` (centres undefined) gave LANA-H2A inh -2.1, HNF4A DNA FP 2.8, FGF22 binding inactive, ALR inh -12, UCH37 inh 2.4, Beta2AR agonist 5 and Ecoli growth 0.7.
`CC(C)c1csc(CN2CCCC(CCC(=O)NCc3ccccc3F)C2)n1` (centres undefined) gave LANA-H2A inh 1.6, HNF4A DNA FP -0.9, FGF22 binding inactive, ALR inh -22, UCH37 inh 1.9, Beta2AR agonist -8 and Ecoli growth 0.67.

Part of the list above in order of length of the SMILES, high to low:
`CN1C2=CC=CC=CC2=[N+](C)C12C([N+](=O)[O-])=CC(=[N+]([O-])[O-])C=C2[N+](=O)[O-]` (centres undefined) gave LANA-H2A inh -2.2, HNF4A DNA FP 4.4, FGF22 binding inactive, ALR inh -21, UCH37 inh 3.8, Beta2AR agonist 18 and Ecoli growth 0.71.
CCOC(=O)c1c(NC(=O)C2COc3ccccc3O2)sc2c1CC(C)(C)NC2(C)C (centres undefined) was read as LANA-H2A inh -1.2, HNF4A DNA FP -2.0, ALR inh -43, UCH37 inh -1.9, Beta2AR agonist 7 and Ecoli growth 0.71.
`CC(C)c1csc(CN2CCCC(CCC(=O)NCc3ccccc3F)C2)n1` (centres undefined) gave LANA-H2A inh 1.6, HNF4A DNA FP -0.9, FGF22 binding inactive, ALR inh -22, UCH37 inh 1.9, Beta2AR agonist -8 and Ecoli growth 0.67.
For O=S(=O)(c1ccc(-c2n[nH]c(=S)o2)cc1)N1CCCCC1 the results were LANA-H2A inh -1.1, HNF4A DNA FP -0.8, FGF22 binding inactive, UCH37 inh 3.5, Beta2AR agonist 11 and Ecoli growth 0.69.
Screening CCCN(C(=O)c1ccco1)c1nnc(-c2ccccc2C)s1 returned LANA-H2A inh 1.6, HNF4A DNA FP -4.2, FGF22 binding inactive, ALR inh -1, UCH37 inh 2.9, Beta2AR agonist -22 and Ecoli growth 0.7.
Cc1ccc(C)c(NC(=O)CCN2CC(C)CC(C)C2)c1 (centres undefined) was read as LANA-H2A inh 6.3, HNF4A DNA FP 0.2, FGF22 binding inactive, ALR inh -6, UCH37 inh -0.6, Beta2AR agonist -1 and Ecoli growth 0.69.

Next section:
Screening COc1ccc(-c2sc3ccc(N4CCOCC4)cc3c2-c2ccc(O)cc2)cc1 returned LANA-H2A inh -1.1, HNF4A DNA FP -0.5, FGF22 binding inactive, ALR inh -4, UCH37 inh 2.7, Beta2AR agonist 9 and Ecoli growth 0.71.
For CC(NC(=O)CSc1ncccc1C(=O)O)C1CC2CCC1C2 (centres undefined) the results were LANA-H2A inh 6.5, HNF4A DNA FP 2.5, FGF22 binding inactive, ALR inh -5, UCH37 inh 0.2, Beta2AR agonist -4 and Ecoli growth 0.67.
Nc1nnc(COc2ccccc2)s1 was read as LANA-H2A inh 8.4, HNF4A DNA FP -1.5, ALR inh -4, UCH37 inh 2.6, Beta2AR agonist 0 and Ecoli growth 0.7.
Screening CC[C@]1(C(=O)OC)[C@H]2C(=O)N(C)C(=O)[C@H]2[C@H]2CN=C(SCc3ccccc3)N21 returned HNF4A DNA FP 3.3, FGF22 binding inactive, UCH37 inh 1.9, Beta2AR agonist -1 and Ecoli growth 0.69.
Screening CSCCC(=O)NC1CCCN(CCc2ccccc2)C1 (centres undefined) returned LANA-H2A inh 3.2, HNF4A DNA FP -3.9, FGF22 binding inactive, ALR inh 1, UCH37 inh 1.6, Beta2AR agonist 3 and Ecoli growth 0.65.
`COC(=O)C1=C(C)NC(=O)NC1c1ccccc1` (centres undefined) gave LANA-H2A inh 0.5, HNF4A DNA FP 4.0, ALR inh -5, UCH37 inh 3.6, Beta2AR agonist 0 and Ecoli growth 0.67.
`COC(=O)C1=C(C)NC(=O)NC1c1ccc(OC(=O)c2ccco2)cc1` (centres undefined) gave LANA-H2A inh -3.6, HNF4A DNA FP -2.0, FGF22 binding inactive, ALR inh 2, UCH37 inh 0.6, Beta2AR agonist 3 and Ecoli growth 0.66.
For COc1ccc2[nH]cc(/C=N/NS(=O)(=O)c3ccc(C)cc3)c2c1 the results were LANA-H2A inh -2.3, HNF4A DNA FP 3.0, FGF22 binding inactive and Beta2AR agonist 6.
`Cc1ccc2nc3c(cc(C(=O)NCCN4CCOCC4)c(=N)n3CCCN3CCOCC3)c(=O)n2c1` gave LANA-H2A inh 5.9, HNF4A DNA FP 2.1, ALR inh -1 and Beta2AR agonist -9.
For CC1=CCC2([N+](=O)[O-])CN(CC(=O)O)CC1([N+](=O)[O-])C2 (centres undefined) the results were LANA-H2A inh -6.4, HNF4A DNA FP -1.9, FGF22 binding inactive, ALR inh -3, UCH37 inh -2.6, Beta2AR agonist 2 and Ecoli growth 0.72.
O=C(CCl)NN1C(=O)NC2(CCCCC2)C1=O was read as LANA-H2A inh -0.6, HNF4A DNA FP 1.6, FGF22 binding inactive, ALR inh -1, UCH37 inh 2.0, Beta2AR agonist 7 and Ecoli growth 0.68.
For O=C(N/N=C/c1cn(-c2cccs2)nc1-c1ccccc1)c1ccccc1Br the results were LANA-H2A inh 1.4, HNF4A DNA FP -1.4, FGF22 binding inactive, ALR inh -1 and Beta2AR agonist -8.
Screening O=[N+]([O-])c1ccc(OCCCOc2cccc3cccnc23)cc1 returned LANA-H2A inh 1.8, HNF4A DNA FP -0.9, FGF22 binding inactive, ALR inh -9, UCH37 inh 2.3, Beta2AR agonist -4 and Ecoli growth 0.71.
Screening COCCCNC(=O)/C(C#N)=C/c1ccc(OCC(=O)O)c(OC)c1 returned LANA-H2A inh 0.8, HNF4A DNA FP -23, FGF22 binding inactive, ALR inh -4, UCH37 inh 7.9, Beta2AR agonist 1 and Ecoli growth 0.69.
For O=C1CCCC/C=C\C[C@H](CC(=O)N(CCO)Cc2ccccc2)C(=O)NCCO1 the results were LANA-H2A inh 1.8, HNF4A DNA FP 2.0, FGF22 binding inactive, ALR inh -4, UCH37 inh 1.1 and Beta2AR agonist -5.
Screening COc1cc(NC(=O)C/C(C)=N/NC(=O)c2cccs2)c(OC)cc1Cl returned LANA-H2A inh -4.8, HNF4A DNA FP 0.9, ALR inh 10 and Beta2AR agonist -3.
CC(C)N(C(=O)[C@H]1C[C@H](CC(=O)NCCC2=CCCCC2)C(=O)N2CCc3c([nH]c4cc(-c5ccco5)ccc34)[C@]12C)C(C)C was read as HNF4A DNA FP 1.7, FGF22 binding inactive, UCH37 inh -6.1, Beta2AR agonist -2 and Ecoli growth 0.72.
`CCOC(=O)c1c(C)[nH]c(C(=O)CSc2ccc(Cl)cc2)c1C` gave LANA-H2A inh 3.7, HNF4A DNA FP 0.2, ALR inh -2, UCH37 inh 0.7, Beta2AR agonist 7 and Ecoli growth 0.74.
`N#CC1=C(SCc2ccccc2)NC2=C(C(=O)CCC2)C1c1ccc2c(c1)OCO2` (centres undefined) gave LANA-H2A inh 1.2, HNF4A DNA FP -3.1, ALR inh 4, UCH37 inh 4.2, Beta2AR agonist -3 and Ecoli growth 0.7.

Screening results deposited in PubChem by several laboratories.

Only part of the results is shown; count on the stated rates, not on these rows.
